HIV TAR-Tat = HIV-1 TAR-Tat binding disruption. HIV-1 TAR RNA, Tat peptide displacement FRET; stronger effect = higher value. actives 0.6% (n = 100,000). z-score (no concentration beside the values);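 also: score is relative to mean and SD of negative controls; some compounds called inactive have numbers as strong as hits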
CDC25B-CDK2 inh = human CDC25B-CDK2/CyclinA binding inhibition; P30305+P24941; HTRF CDC25B-CDK2/CyclinA binding, anti-His/anti-Flag; stronger effect = higher value; z-score (no concentration beside the values); actives 0.72% (n = 94,000); AID 1259370;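 also: score is relative to mean and SD of negative controls; strong numbers were not always called active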
Active calls of the source: *; / = not tested or not shown; & = joins results of further samples.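 The calls were made as follows: active = z-score from 3 up in half or more of its runs; inactive = the rest.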 Compounds as they come, and some 0.87% of all compounds hit somewhere here.

smiles,HIV TAR-Tat,CDC25B-CDK2 inh
CSc1nc(N2CCOCC2)c2sc3nc(C)c4c(c3c2n1)CC(C)(C)OC4,0.68,-0.65
CN1CCN(CC(=O)N2c3ccccc3C(=O)Nc3cccnc32)CC1,2.2,0.32
O=C1CCSc2ccc(S(=O)(=O)Nc3ccc(Cl)cc3)cc2N1,1.2,/
CN(C)CCN1C(=O)C(O)=C(C(=O)c2cc3ccccc3o2)C1c1ccc(OCc2ccccc2)cc1 (centres undefined),2.5,-1.8
Cc1ccccc1Nc1nc2ccccc2n2c(C)nnc12,-0.44,-1.5
CCC(C)(C(=O)NC1CCCC1)N(Cc1cccs1)C(=O)Cc1cccs1 (centres undefined),/,0.13
O=C1O[C@@H]2C[C@H]3C[C@@H]2[C@@H]1[C@H]3C(=O)N1CCN(c2ccccc2F)CC1,0.26,-0.47
Cc1sc2nc(SCC(=O)N3CCCC3)[nH]c(=O)c2c1C,-0.57,0.28
Cc1nc(-n2cnc3ccccc32)c2c3c(sc2n1)CCC3,/,-2.2
Cc1ccccc1-c1nc(SCc2cc(=O)n3nc(C(C)C)sc3n2)n[nH]1,0.09,/
CCN(c1cc(C)nc(-n2cc([N+](=O)[O-])cn2)n1)c1ccccc1C,0.84,/
CC1=C(c2cccc(Br)c2)S(=O)(=O)NC1=NC1CCCCC1,-0.13,-8.2
COc1ccccc1NC(=O)NNC(=S)NCC(OC)OC,/,-3.3
CCOc1ccc2c(c1)C(C)=CC(C)(C)N2C(=O)Nc1ccc(Cl)cc1,-3,-1
O=C(Nc1ccc(Br)cc1F)C1COc2ccccc2C1 (centres undefined),0.96,/
C=CCN1C(=O)C(O)(CC(=O)c2ccc(OCC)cc2)c2cc(Br)ccc21 (centres undefined),-0.22,0.15
N#Cc1sc2nc3c(cc2c1N)CCCC3,/,-1.7
Cc1nc(-c2ccccc2)sc1-c1nc(-c2ccc([N+](=O)[O-])o2)no1,/,-2.2
COc1ccc(C(=O)CSc2n[nH]c(=O)n2Cc2ccco2)cc1,/,-0.85
CCOC(=O)N1CCN(C(=O)CCS(=O)(=O)c2ccc3c(c2)NC(=O)C(CC)S3)CC1 (centres undefined),1.3,/
CCOc1ccccc1N(C)S(=O)(=O)c1ccc2c(c1)NC(=O)C(C)S2 (centres undefined),1.9,/
Cn1c2ccccc2c2c(C(=O)N3CCN(c4ccccn4)CC3)cn(C3CCCC3)c(=O)c21,/,-2.4
S=C1NNC2(NN1)C1CC3CC(C1)CC2C3,/,-0.09
CCOCCc1nn2c(=O)cc(COC(=O)c3ccccc3Br)nc2s1,-0.6,/
COc1ccc(-c2cc3ccccc3n2CC(O)CN2CCN(CCO)CC2)cc1 (centres undefined),1.6,0.03
CC1(C)C[C@H]1C(=O)N/C(=C\CCCCSC[C@@H](N)C(=O)O)C(=O)O,-0.23,/
COc1nc(C)c(-c2csc(C)n2)cc1C#N,/,-3
CC(C)(C)c1ccc(C(=O)Nc2ccc(-c3cn4cccnc4n3)cc2)cc1,/,-0.41
COc1ccc(Cl)cc1-c1noc(-c2ccc3c(c2)OCO3)n1,2.2,-0.93
CC(C)C(=O)N1CCN(Cc2noc(CCC(=O)N(C)C3CCCCC3)n2)CC1,1.8,/
CCOC(=O)Cc1c(C(=O)OCC)c(C)cn1CC,1.2,-0.06
O=[N+]([O-])c1cc(Br)cc2c1[nH]c1c(Br)cc(Br)cc12,/,-1
COc1cc(S(=O)(=O)N2CCN(C)CC2)ccc1Cl,-0.55,-1.6
N#CC(C#N)=Cc1c(-c2ccc(Cl)cc2)[nH]c2ccccc12,/,-1.1
Fc1ccccc1CN1CCN(CC2CC=CCC2)CC1 (centres undefined),3.3,-1.1
CCCC12CN3CC(C)(CN(C1)C3c1ccc(C(C)C)cc1)C2=O (centres undefined),/,-0.42
Cc1ccc(S(C)(=O)=NC(=O)c2cnc3c(c(C)nn3C)c2SC(C)C)cc1 (centres undefined),/,-1.5
CS(=O)(=O)N(Cc1ccc(Cl)cc1)c1ncc(C(F)(F)F)cc1Cl,/,-0.64
COc1ccccc1CNc1nc(N(C)C)nc2c1cnn2C,0.82,/
Cc1c(C2=CCN(S(=O)(=O)c3cn(C)cn3)CC2)c2ccccc2n1Cc1ccc(Cl)cc1,-5.5,/
CSc1cccc(NC(=O)Nc2cn(CC(C)C)c(=O)c3ccccc23)c1,0.17,/
COC(=O)c1ccc(S(=O)(=O)Nc2ccc3c(c2)C(=O)OC3)n1C,/,-1.9
c1ccc(CNc2nc3c(-c4ccccc4)nnn3c3ccccc23)cc1,-0.28,-0.21
Cc1nn(-c2ccccc2)c(Cl)c1C1C(C#N)=C(N)OC2=C1C(=O)CC(C)(C)C2 (centres undefined),/,0.3
Cc1nn(-c2ccc(N3CCOCC3)nn2)c(C)c1CCC(=O)NCc1cccs1,-0.58,/
CCOC(=O)CN1C(=O)C(O)(CC(=O)c2cccc3ccccc23)c2ccccc21 (centres undefined),1.3,1.2
O=C1N(c2ccccc2)C2CS(=O)(=O)CC2N1c1cccc(Cl)c1 (centres undefined),3.4,-1.4
O=C(Cc1csc2nc(-c3ccc(Cl)cc3)cn12)NC1CCCCC1,0.65,/
O=C(O)CCc1c[nH]c2ccccc12,0.01,-1.4
COCn1c(-c2ccc(OC)c(OC)c2)nc2ccccc21,/,0.91
Cc1cccc(NC(=O)CC(NCc2ccco2)C(=O)O)c1C (centres undefined),/,-1
Cn1cc(S(=O)(=O)N2CCCC2)cc1C(=O)NCCCN1CCN(C2CCCCC2)CC1,0.43,/
COc1cc(C2c3c(oc4ccccc4c3=O)C(=O)N2CCCN2CCOCC2)ccc1O (centres undefined),-0.42,1.1
O=c1sc2ccccc2n1CCCOc1ccc(Cl)cc1,2.1,0.55
O=C(c1cnn2c(C(F)(F)F)cc(-c3ccco3)nc12)N1CCCC1c1ccc(F)cc1 (centres undefined),0.84,-1.7
COc1cccc(-c2coc3c(C)c4oc(=O)c5cc(OC)ccc5c4cc23)c1,1.2,0.79
COc1cc(/C=N\n2c(C)n[nH]c2=S)cc(OC)c1OC,/,1.5
CCOC(=O)N1CCN(c2c(N(CC)CCN(C)C)c(=O)c2=O)CC1,0.17,-1.1
O=C(CCN1C(=O)c2ccccc2C1=O)Oc1ccc2c3c(c(=O)oc2c1)CCC3,/,2.1
CN(CC(=O)N1CCC(N2CCCCC2)CC1)S(=O)(=O)c1ccc2c(c1)c(=O)n(C)c(=O)n2C,/,-2.6

Next part
smiles,HIV TAR-Tat,CDC25B-CDK2 inh
Cc1ccc2nc3c(cc(C#N)c(=O)n3Cc3cccnc3)c(=O)n2c1,1.5,0.11
O=C(NC1CCCCC1)NC1COc2ccccc2C1 (centres undefined),0.53,/
CC(C)CC(=O)Nc1nnc(S(=O)(=O)N2c3ccccc3CC2C)s1 (centres undefined),0.24,-0.48
O=C(CCCC(=O)c1ccccc1)Nc1nc2ccc(Br)cc2s1,2.3,/
COC(=O)Nc1ccc(S(=O)(=O)N(C)C)cc1,1.7,-1.2
COc1ccc(C2C(C(=O)c3ccco3)=C(O)C(=O)N2CC2CCCO2)c(OC)c1 (centres undefined),/,-1.8
O=[N+]([O-])c1ccc(-c2ccc(-c3ccc([N+](=O)[O-])cc3)o2)cc1,/,1.1
CCCCCC(=O)Nc1nc2nc(C)c(Cl)c(C)n2n1,-0.95,-1.5
N#C/C=C/c1cc(C(F)(F)F)cc(C(F)(F)F)c1,/,-1.5
O=S1(=O)C[C@H](N2CCN(c3ccccc3F)CC2)[C@@H](S(=O)(=O)c2ccccc2)C1,1.2,0.23
Cc1ccc(C)c(NS(=O)(=O)c2c(C)nc3scc(C)n3c2=O)c1,1,-1.6
CCc1ccc(C2Nc3ccccc3-n3cc4c(=O)n(C)c(=O)n(C)c4c32)cc1 (centres undefined),1.8,2.5
O=C1c2cc(S(=O)(=O)NCCCO)ccc2-c2ccc(S(=O)(=O)NCCCO)cc21,/,0.04
COC(=O)c1ccn(-c2nc(-c3cccc(OC)c3)cc(C(F)(F)F)n2)n1,/,0.78
COc1ccc(C(=O)OC2=C(C(=O)c3ccccc3)N(C)S(=O)(=O)c3ccccc32)cc1OC,0.07,-0.67
O=C1C[C@@H](c2ccc(O)cc2)Oc2cc(O[C@@H]3O[C@H](CO)[C@@H](O)[C@H](O)[C@H]3O)cc(O)c21,3.2,/
CC1CCCCN1CCNC(=O)c1cc(S(=O)(=O)N2CCCC2)cn1C (centres undefined),0.31,/
Cc1ccc(CNc2nc(NCCN3CCOCC3)nc3c2cnn3C)cc1,0.54,/
CCN1CCN(c2nc(N3CCN(Cc4ccccc4)CC3)nc3c2cnn3C)CC1,1.1,/
COc1ccc(C2c3c(-c4ccccc4O)n[nH]c3C(=O)N2CCO)cc1OC (centres undefined),0.72,-0.29
COc1ccccc1C1NCCc2c1sc1c2CCCC1 (centres undefined),2,/
C#CC(C)(CC)OCC(O)CS(=O)(=O)O (centres undefined),/,0.3
CC(C)N1C(=O)C(O)(CC(=O)c2ccc3c(c2)OCCO3)c2ccccc21 (centres undefined),2,-0.08
O=[N+]([O-])c1ccc(S(=O)(=O)c2cc(Cl)ccc2Cl)[n+]([O-])c1,/,-1.8
C1CCN(CC2COC3(CCCC3)O2)CC1 (centres undefined),/,-1.3
CCCCC(CC)CN=C(N)NC(N)=NCCCCCCN=C(N)NC(N)=NCC(CC)CCCC (centres undefined),0.32,/
Cc1c(CNCc2ccc3c(c2)OCO3)c(C(=O)O)c(C)n1Cc1ccccc1F,0.27,-0.76
CCCC(=O)Nc1nnc(SCc2cc(=O)n3nc(CCC)sc3n2)s1,0.42,/
O=C(NC1CC1)C1CCN(C(=O)c2sccc2-n2cccc2)CC1,2.5,-0.88
Cn1c(=O)oc2cc(S(=O)(=O)NCCn3c(CCc4ccccc4)nc4ccccc43)ccc21,-0.52,/
CCOC(=O)c1c(NC(=O)c2cc3ccccc3c(=O)s2)sc2c1CCCC2,0.74,-2.3
CCOC(=O)c1c(C)csc1NC(=O)CC(=O)C(F)(F)F,/,-1.4
COc1ccc(Nc2nc(N)nc(CSc3ncccn3)n2)cc1,1.9,-0.38
CCCN1C(=O)c2c(C(=O)NC3CC3)ncn2CC1(C)C(=O)NCCC(C)C (centres undefined),1.5,/
Cc1ccc(C)c(N(C)C(=O)Cn2ncc3c(=O)oc4ccc(C)cc4c32)c1,3.3,-0.79
COc1ccc(OC)c(CNc2nc(N3CCN(C)CC3)nc3c2cnn3C)c1,1.2,/
Fc1ccccc1CN1CCc2nc(N3CCOCC3)ncc2C1,1.1,/
COc1ccc(S(=O)(=O)NCc2cccn2Cc2ccc(F)cc2)cc1OC,0.13,/
CCOC(=O)c1c(C)n(-c2ccccc2)c2cc(Br)c(O)cc12,0.17,-0.03
COc1ccc(C(=O)OCc2cc(=O)n3nc(C4CC4)sc3n2)cc1,-0.04,/
Cc1cc(N=NNc2cc(C)on2)no1,/,-1.2
CCOc1cccc(-c2cc(C(=O)Nc3ccc4c(c3)OCCO4)c3ccccc3n2)c1,/,-3.4
O=c1c2c(nc3nc(NCc4ccc(Br)cc4)[nH]n13)CCC2,0.74,1.3
CCOc1ccc(-n2c(=O)[nH]c3c(C(N)=O)nc(-c4cc(F)ccc4F)nc32)cc1,-0.25,/
CCOc1ccc(/C=C(\C#N)C(=O)N2CCCC2)cc1,/,-1.4
CN(c1cnn(-c2ccc(Cl)cc2Cl)c(=O)c1Cl)N1CC(C)(C)C1=O,/,-2.3
CC(C(=O)O)c1ccc(-c2ccccc2)c(F)c1 (centres undefined),1.1&1.1,/
COc1nccn(-c2ccc(F)c(F)c2)c1=O,0.25,-0.23
Cc1nn(CCCC(=O)NC2CCCC2)c(=O)c2cc3sccc3n12,0.43,-2.1
COc1ccc(SCc2cc(=O)c3cc(F)ccc3[nH]2)cc1,-0.7,/
Cc1ccc2c(=O)c(C(=O)c3ccc(Br)cc3)c[nH]c2n1,-8.5,/
CC(C)OC(=O)C1C(=O)CC(C)(O)C(C(=O)OC(C)C)C1/C=C/c1ccccc1 (centres undefined),1.2,0.03
CCOc1ccccc1N1C(=O)C2C(c3ccc(C)cc3)OC3(C(=O)c4ccccc4C3=O)C2C1=O (centres undefined),-0.81,-1.7
Cc1cc2nc(COC(=O)CNC(=O)c3ccco3)cc(=O)n2o1,0.31,/
COCCn1c(N2CCCCCC2)nc2c1c(=O)[nH]c(=O)n2C,/,-1.5

Source: PubChem
